gsp agonist: qHTS for Agonist of gsp, the Etiologic Mutation Responsible for Fibrous Dysplasia/McCune-Albright Syndrome: qHTS | 340,000 compounds, 0.13% hits | AID 624287, 2012 | Potency, µM (highest dose often 76.9 µM), for the others: at the top dose activation (cAMP increase), usual class: activators | gsp mutant cells, cAMP HTRF, 30 min; control for the full effect not named in the record; active = well fitted activation curve with a large enough effect; inconclusive = small, poorly fitted or top-dose-only effect, or another doubt; inactive = no such curve, though single readings can be large or run the other way; cell line not stated here;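 further: phosphodiesterase inhibitor Ro 20-1724 added with compounds to block cAMP breakdown; potency means the concentration at half of the fitted maximal effect; nearly all actives have a fitted effect of over 60% in size; about a fifth of the inactives were tested at one dose only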
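Cells stably selected in G418 were plated at 2000/well, grown 16-24 hr, then given compounds in DMSO with the PDE inhibitor […] (300 uM solution added) for 30 min at 37C; cAMP was read by HTRF.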
gsp antag: qHTS for Antagonists of gsp, the Etiologic Mutation Responsible for Fibrous Dysplasia/McCune-Albright Syndrome: qHTS; 340,000 compounds, 0.4% hits; Potency, µM (titrated, usually from 76.9 µM), inactives show top-dose activity change, negative = inhibition, hits mostly inhibitors; AID 624288, 2012; gsp-mutant cells, cAMP HTRF, 30 min; control for the full effect not named in the record; active = falling curve of any shape with a large fitted effect; inconclusive = falling curve, mostly with a smaller effect; inactive = flat or rising curve; cell line not stated here;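 further: intracellular cAMP measured with PDE inhibitor Ro 20-1724 present during compound exposure; potency means the concentration at half of the fitted maximal effect; on the % scale 0 is the no-effect control and ±100 the full control effect; nearly all actives have a fitted effect of over 65% in size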
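G418-selected cells were plated in DMEM/10% FBS for 16-24 h at 37C, then treated with compounds plus the PDE inhibitor […] (300 uM solution added) for 30 min at 37C. Intracellular cAMP was measured by HTRF after 30 min lysis at room temperature.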
TRPML1 agonist: qHTS for Agonists of the Human Mucolipin Transient Receptor Potential 1 (TRPML1). Mucolipin-1 (Homo sapiens), Q9GZU1. TRPML1-expressing cells, Ca2+ dye fluorescence, FDSS; host cell line not named in the record; reference of the full effect not given here. activation, % (concentration not given with the values). 410,000 compounds, 0.12% hits; in the data active = activation above about 50%; inconclusive = about 30% to 50%; inactive = below about 30%; further: 0% is about no effect; the text of the record puts the active cut at 80%
Target sequence (Q9GZU1 whole entry, looked up): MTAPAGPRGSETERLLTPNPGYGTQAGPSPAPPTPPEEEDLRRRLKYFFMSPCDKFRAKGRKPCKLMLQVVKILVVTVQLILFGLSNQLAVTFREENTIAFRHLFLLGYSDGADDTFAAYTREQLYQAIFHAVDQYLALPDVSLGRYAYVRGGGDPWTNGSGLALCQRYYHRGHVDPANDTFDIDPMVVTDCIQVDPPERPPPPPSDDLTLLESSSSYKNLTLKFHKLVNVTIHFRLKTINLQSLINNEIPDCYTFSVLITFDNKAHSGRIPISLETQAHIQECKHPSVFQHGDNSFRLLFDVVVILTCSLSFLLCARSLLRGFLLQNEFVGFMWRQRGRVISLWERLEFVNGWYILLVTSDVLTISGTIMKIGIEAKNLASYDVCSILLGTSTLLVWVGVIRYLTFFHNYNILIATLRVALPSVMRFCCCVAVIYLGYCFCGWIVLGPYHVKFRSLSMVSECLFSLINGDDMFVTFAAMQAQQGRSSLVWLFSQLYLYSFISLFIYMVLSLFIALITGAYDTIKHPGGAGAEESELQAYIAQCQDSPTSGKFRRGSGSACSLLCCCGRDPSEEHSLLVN
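TRPML1-DL cells, Tet-induced overnight (~16 h, 37 degrees C), loaded 45-90 min at room temperature with Ca8 no-wash calcium dye plus quencher. FDSS fluorescence: 10 s baseline, compound pin-transfer, 110 s agonist read, then EC80 54-4 (4uM final) and 110 s antagonist read.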
TRPML1 inh: qHTS for Inhibitors of the Human Mucolipin Transient Receptor Potential 1 (TRPML1); TRPML1-inducible cells, Ca2+ dye fluorescence, FDSS; hits give low values; inhibition of EC80 agonist-evoked calcium signal; activity change, negative = inhibition, % (test concentration not listed); 390,000 compounds, 0.02% hits; in the data active means activity change below about -50%; inconclusive means about -30% to -50%; inactive means above about -30%;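 further: stimulus is agonist 54-4 at its EC80 concentration; on the % scale 0 is the no-effect control and ±100 the full control effect; compound concentration not given in the record; the text of the record puts the active cut at -80%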
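Calcium fluorescence in TRPML1-DL cells induced overnight with Tet: a 110 s read after compound pin addition, then a 110 s antagonist read after challenge with 54-4 at 4 uM final (EC80).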
ClpP mod: qHTS Assay for Activators of ClpP; Potency, µM (titrated, usually from 57.5 µM), for the others: at the top dose activity change, negative = active; purified B. subtilis ClpP, FRET peptide cleavage, 20 min; 340,000 compounds, 1.9% hits; active = well fitted falling curve with a large enough effect; inconclusive = small, poorly fitted or top-dose-only effect; inactive = no such curve, though single readings can be large or run the other way; further: potency means the concentration at half of the fitted maximal effect; the source files actives as falling curves though it sought activators and does not explain the sign; nearly all actives have a fitted effect of over 65% in size; many hits overshoot -100%
Target sequence (P80244 whole entry, looked up): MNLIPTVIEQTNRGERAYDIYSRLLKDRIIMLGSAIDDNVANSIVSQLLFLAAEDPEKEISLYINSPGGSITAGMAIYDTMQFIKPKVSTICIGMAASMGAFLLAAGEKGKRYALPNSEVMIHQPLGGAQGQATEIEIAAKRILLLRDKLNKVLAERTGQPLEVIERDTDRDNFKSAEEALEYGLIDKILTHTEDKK
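Buffer: 100 mM Tris/HCl pH8, 100 mM KCl, 0.05% low protease BSA, 2.5% glycerol, 0.01% Tween-20. ClpP 10 microg/mL final; 20 min RT; delta FRET normalized to ADEP and DMSO controls.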
Menin-MLL FL inh: qHTS Assay for Inhibitors Targeting the Menin-MLL Interaction in MLL Related Leukemias: Competition With Fluorescein Labeled MLL-derived Peptide. Fluorescence polarization, fluorescein-MLL peptide displacement from menin. FP activity change, % at 61.4 µM. 290,000 tested, under 10 active. AID 1766, 2009; inconclusive = falling polarisation curve, or a change in total fluorescence; inactive = total fluorescence flat and polarisation flat or rising; no compound was filed as active; the % refers to the polarisation; negative = inhibition;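 further: % of control where 0% means no effect; inhibitors lower the polarisation; unlabelled MLL peptide was the positive control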
* = called active by the depositor; ? = inconclusive; . = not tested or not shown; & = joins results of further samples; [ ] = remark or other dose.

SMILES | gsp agonist | gsp antag | TRPML1 agonist | TRPML1 inh | ClpP mod | Menin-MLL FL inh
O=C(NCC(c1ccc(F)cc1)N1CCOCC1)c1cccnc1Sc1ccccc1 (stereo unspecified) | 10%[15.4 µM] | 6% | -0.1 | 8 | 0.9% | .
COC(=O)c1cccc(NC(=O)CCSc2ccc(Cl)cc2)c1C | 14% | -4% | 0.7 | -7 | -1.6% | 0.0
C/C(=C/c1ccccc1)C(=O)N1CCN(c2ccccc2)CC1 | -8% | ? | 0.6 | 14 | -1.1% | 4.5
CCOc1ccc(C(=O)NNC(=O)C2CC(=O)N(c3ccc(C)cc3)C2)cc1 (stereo unspecified) | -40%[inhibitor] | 8% | 0.1 | 16 | -7.3% | .
O=C(Cn1c(=O)n(-c2ccc(Cl)cc2)c(=O)c2sc3ccccc3c21)NC1CCCCC1 | . | . | -0.9 | -7 | ? | .
Cc1ccc(C(=O)Nc2cccnc2)cc1S(=O)(=O)N1CCCCCC1 | 9% | -18% | 1.2 | -3 | 1.1% | .
CCCn1cnc2c(SCc3ccccc3Cl)nc(N)nc21 | -50%[inhibitor] | -1% | 2.4 | 28 | 0.3% | .
CN(C)c1ccc(/C(=N\O)C(F)(F)F)cc1 | -19% | 40µM* | 3.3 | 22 | -3.8% | 0.2
CCNS(=O)(=O)c1ccc2c(c1)NCC2 | -18% | 6% | -0.3 | 18 | -6.4% | 2.7
CC(=O)/C(N=Nc1ccc(OC(F)(F)F)cc1)=C(\C)O | 19% | 5% | -0.3 | 7 | . | 1.2
Cc1cccc(OCC(=O)Nc2ccc(OCc3cc(=O)n4cc(C)ccc4n3)cc2)c1 | . | . | -0.3 | -9 | -20% | .
COc1ccc(-c2nc(CS(=O)(=O)CC(=O)NCc3cccc(OC)c3OC)c(C)o2)cc1 | -24% | -13% | 0.5 | 32 | -5.3% | -3.2
NC(=O)C1CCN(C(=O)C2CC(=O)N(c3ccc(F)cc3)C2)CC1 (stereo unspecified) | -2% | -15% | -0.7 | -6 | -4.4% | .
COc1ccc(-c2noc(N3CCC(C(=O)Nc4cccc(C)c4C)CC3)n2)cc1 | . | . | -0.8 | 7 | 1.8% | .
CC1(c2ccccc2)C(C#N)C(=O)NC(=O)C1C#N (stereo unspecified) | ? | 6% | -0.4 | 1 | . | .
COc1ccc(C(C)=O)cc1CSc1nc(C)cc(C)n1 | -9%[15.4 µM] | 3% | 2.2 | 7 | . | -4.6
N#CC1=C(N)Oc2n[nH]c(CSc3ccccc3)c2C12C(=O)Nc1ccccc12 (stereo unspecified) | ? | -2% | -0.4 | 0 | -1.4% | 5.2
COCC(=O)N(Cc1cc2ccc(C)c(C)c2n2nnnc12)C1CCCC1 | -20% | -4% | 0.4 | 2 | . | 2.5
COc1ccc2oc(-c3ccc(C)c(NC(=O)Cc4ccc(Cl)cc4)c3)nc2c1 | . | . | 0.5 | 15 | -28% | .
CC(N=C1NC(C)(C)Cc2ccccc21)C(=O)O (stereo unspecified) | 4% | 18% | -0.3 | 9 | 1.7% | -0.6
O=Cc1c(NCCN2CCOCC2)c2ccccc2[nH]c1=O | -13% | 7% | -0.7 | 9 | . | -5.8
Cc1ccc(NC(=O)CCC(=O)NNS(=O)(=O)c2ccc(Cl)cc2)cc1C | -6%[15.4 µM] | -3% | -0.6 | 5 | -1.7% | .
CCn1c(-c2ccc(C)cc2)nn(CC(=O)NCCc2ccccc2)c1=S | -13%[15.4 µM] | 7% | -0.6 | 6 | 1.0% | -0.3
O=C1Nc2cccnc2N(C(=O)CCl)c2ccccc21 | -1% | 9% | 0.7 | 6 | . | -1.8
COc1ccc(NC(=O)c2nc3nccc(C)n3n2)cn1 | 18% | 7% | 0.0 | 6 | -2.2% | ?
Cc1ccc(NC(=O)Nc2cnccn2)cc1C | -16% | -1% | 0.9 | 1 | -9.5% | 5.3
CC(C)N(CCNC(=O)c1cn(C)c2ccc(S(=O)(=O)N(C)C)cc2c1=O)Cc1ccccc1 | -72%[inhibitor] | 4% | -0.1 | -5 | -2.9% | 0.9
O=C(NCCCCc1ccccc1)c1ccc(Br)cc1 | -35%[inhibitor] | 4% | -0.7 | 1 | -2.1% | 2.9
CCC(CCC(=O)Nc1cccc(C(=O)O)c1)C(=O)O (stereo unspecified) | 24% | 4% | -0.5 | -7 | ? | 2.1
C=CCNC(=O)c1nn2cccnc2c1Cl | ? | -8% | -0.8 | 16 | 0.7% | 4.6
O=C(O)c1nn(CC(=O)N2CCN(c3ccccc3)CC2)c(=O)c2ccccc12 | 4% | -3% | 1.4 | -14 | . | 0.0
COc1cc(-c2nnc(COc3ccc4ccccc4c3)o2)cc(OC)c1OC | 20% | -1% | 1.7 | -9 | ? | 1.3
CCc1ccc(NC(=O)N2CC(C)Oc3ccc(C)cc32)cc1 (stereo unspecified) | . | . | 1.3 | -16 | -1.5% | .
CC(C)CCN(Cc1ccco1)C(=O)c1cc2c(Cl)nc3ccccc3c2s1 | . | . | 12 | -18 | -14% | .
O=C(Nc1cccnc1)c1ccccc1NS(=O)(=O)c1ccc(F)cc1 | -2%[15.4 µM] | -17% | -0.6 | -10 | 1.2% | -11
CSc1nc(N)nc2c1ncn2CC(=O)NCC(c1ccccc1)c1ccccc1 | . | -5% | 0.0 | -2 | ? | .
CC(=O)OCCNC(=O)c1cc2ccccc2oc1=O | -15% | 10% | -0.5 | 30 | 25µM* | -0.9
C/C(=N\OC(=O)NC1CCCCC1)c1sc(-c2ccccc2)nc1C | -25% | ? | 1.2 | 49 | -13% | 7.4
COc1ccc(C(NC(C)=O)c2cc(Cl)c3cccnc3c2O)cc1OC (stereo unspecified) | 0% | -3% | 0.3&0.3 | 4 | 1.6% | 2.1
CCOc1cccc2sc(NC(=O)CCS(=O)(=O)c3ccccc3)nc12 | -7%[15.4 µM] | -9% | 0.0 | 5 | -10% | 0.3

The last 2 records of the section before are carried over, then new ones follow:
SMILES | gsp agonist | gsp antag | TRPML1 agonist | TRPML1 inh | ClpP mod | Menin-MLL FL inh
COc1ccc(C(NC(C)=O)c2cc(Cl)c3cccnc3c2O)cc1OC (stereo unspecified) | 0% | -3% | 0.3&0.3 | 4 | 1.6% | 2.1
CCOc1cccc2sc(NC(=O)CCS(=O)(=O)c3ccccc3)nc12 | -7%[15.4 µM] | -9% | 0.0 | 5 | -10% | 0.3
Cc1ccc(C)c(N2CCN(C(=O)CCS(=O)(=O)c3cc(Br)cc4c3N(C(=O)C3CC3)CC4)CC2)c1 | . | . | 0.3 | 13 | -0.4% | .
COCC1CCN(Cc2nc(-c3ccc4c(c3)OCO4)no2)C1 (stereo unspecified) | -5%[15.4 µM] | 6% | -0.3 | 15 | . | 1.8
Cc1csc(=Nc2ccccc2)n1Cc1ccco1 | 2% | -14% | 1.8 | 5 | 1.6% | 2.9
C=CCn1c(SCC(=O)NCc2ccco2)nnc1-c1ccc2ccccc2n1 | ? | -12% | -0.4 | 0 | -4.3% | 3.8
Cc1cc(Cl)ccc1OCc1nc(-c2ccc(-n3cccc3)cc2)no1 | . | . | 0.2 | 11 | -2.0% | .
O=C(NC(Cc1c[nH]c2ccccc12)C(=O)Nc1ccc(F)cc1)c1cccs1 (stereo unspecified) | 3% | -17% | 0.3 | -15 | -1.9% | 12
COc1ccccc1CO/N=C/c1cccn1-c1nccc(N(C)C)c1C#N | -1% | -2%[15.4 µM] | 0.6 | 9 | 0.8% | 3.5
C[C@H](CO)N1C[C@H](C)[C@@H](CN(C)CC2CCOCC2)Oc2cc(C#Cc3ccccc3F)ccc2S1(=O)=O | -28% | . | -0.5 | -9 | ? | .
O=C(Nc1cccc(F)c1)C1CCCN1C(=O)OCc1ccccc1 (stereo unspecified) | 21% | 2% | 0.2 | -4 | -1.8% | -7.9
CC(=O)[C@H]1[C@H](CCc2ccccc2)NC(=O)N(Cc2ccccc2)[C@@H]1C | . | 6% | 0.4 | 23 | ? | -3.2[11.7 µM]
CSc1ncc(C(=O)Nc2cc(C)ccc2C)c(C)n1 | 7% | 4% | . | . | -1.3% | 4.8
CS(=O)(=O)N1CCN(c2ccc([N+](=O)[O-])cc2C(F)(F)F)CC1 | 3%[15.4 µM] | -4% | 1.0 | 4 | . | 3.8
CCCN(CC(=O)Nc1ccccc1C)C(=O)c1ccc(-c2ccccc2)cc1 | -6% | -26% | 3.0 | 33 | -2.4% | .
Cc1noc(C)c1S(=O)(=O)NCCN1CCN(c2ccccc2)CC1 | 9% | 22% | 2.6 | 29 | 1.6% | 4.1
CC(=O)Oc1ccc(-c2cccc(C(=O)OCC(=O)N(C)c3ccccc3)c2)cc1 | -24% | ? | 2.7 | -16 | -10% | 2.2
CCOc1ccc(S(=O)(=O)N2CCC(C(=O)NCCc3ccccc3)CC2)cc1 | -1% | 0% | 1.2 | 10 | -0.8% | 0.5
Cn1c(SCC(=O)Nc2sccc2C#N)nnc1C1CC1 | -5%[15.4 µM] | 4% | 0.6 | 4 | 0.1% | .
O=C1C2C3C=CC(C3)C2C(=O)N1c1ccc2c(c1)CCC2 (stereo unspecified) | -17% | 12% | 0.0 | 9 | -2.0% | -3.2
Cc1cc(C)nc(-n2nc(C)c3c2N(C)C(=O)CC3c2ccc(Cl)cc2)n1 (stereo unspecified) | . | . | -0.7 | -9 | -1.2% | .
COc1ccc(C)cc1S(=O)(=O)Nc1cccc(SC)c1 | 21% | 1% | -1.1 | 6 | -5.9% | -1.3

Arranged by value in Menin-MLL FL inh (low to high): some entries from above
molecule	Menin-MLL FL inh
CC(=O)Oc1ccc(-c2cccc(C(=O)OCC(=O)N(C)c3ccccc3)c2)cc1	2.2
Cc1csc(=Nc2ccccc2)n1Cc1ccco1	2.9
COc1ccccc1CO/N=C/c1cccn1-c1nccc(N(C)C)c1C#N	3.5

The listing continues.
SMILES | gsp agonist | gsp antag | TRPML1 agonist | TRPML1 inh | ClpP mod | Menin-MLL FL inh
COc1ccc(-c2csc(NC(=S)NC(=O)/C=C/c3ccco3)n2)cc1OC | 11%[15.4 µM] | 13% | 1.2 | -10 | -2.3% | 5.6
O=C(c1ccc(N2CCOCC2)cc1)c1cccs1 | -4% | -4% | 0.7 | 6 | 0.8% | 2.5
O=C(COc1ccc(Cl)cc1)Nc1ccc2c(c1)nc1n2CCOC1 | ? | 4% | -0.4 | -1 | -9.6% | .
COc1ccc(OCC(=O)OCCNC(=O)c2cccnc2)cc1 | 1% | -1% | 0.2 | -2 | -4.6% | 0.6

Source: PubChem (National Center for Advancing Translational Sciences (NCATS))
